# Screening data (PubChem BioAssay)
# Beta apoptosis – beta cell apoptosis inhibition. INS-1E cytokine-induced death, ATP luminescence, 48 h; percent of positive-control rescue, neutral wells zero. protection from apoptosis, % (test concentration not listed). hit rate 0.8% among 300,000. AID 435005;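 active = all replicates at 75% or more, or half of them and the mean; inconclusive = half reach 75% but not the mean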;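 also: 0% = cytokine-treated negative control wells and 100% = positive control rescue; higher means more ATP so stronger rescue from cytokine killing; wells of about 40 µL received 100 nL stock; the first replicate is given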
# Beta2AR agonist – human beta-2 adrenergic receptor agonism by FAP. Am2.2-beta2AR cells, FAP receptor internalization, flow cytometry; reference of the scale not given here. hit rate 0.43% among 340,000. response, % (no concentration beside the values);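 active = response above a set limit, near 3 SD of response in nonfluorescent compounds, cut at about 42% in these data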;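 also: stock transfer was 100 nL into about 11 µL; a reference agonist was the positive control; negative values mostly stem from fluorescent compounds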
# Calb FLC – C. albicans growth modulation with fluconazole. C. albicans CaCi-2 (fluconazole-resistant clinical isolate) + fluconazole, Alamar Blue growth, 48 h. growth inhibition, % (no concentration beside the values). hit rate 0.57% among 300,000. AID 1979;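 active = most replicates above 75%; inconclusive = exactly half above 75%; inactive = most below 75%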;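 also: all wells also contain fluconazole at 8 µg/ml as a sub-toxic cotreatment; 0% = median of DMSO wells and 100% = median of geldanamycin control wells; wells of about 8 µL received 7.5 nL stock; the first replicate is given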
# ALR H2O2 inh – blocks human ALR sulfhydryl oxidase activity; purified ALR, DTT oxidation, H2O2 HRP-luminol luminescence; inhibition, % (concentration not given with the values); hit rate 3.8% among 290,000; AID 485317;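 active = mean and each replicate at 75% or more; inconclusive = only one of the two met; inactive = neither met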;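 also: stock transfer was 7.5 nL into about 7.5 µL; 0% = neutral wells and 100% = wells with inactivated enzyme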
# rRNA inh HTS – inhibitors of bacterial rRNA selective over humanized ribosomes. E. coli WT GFP vs humanized-ribosome RFP mutants, fluorescence, 24 h; stronger effect = lower value; DMSO median 0, no signal -100. GFP signal change (wild-type ribosome), % (test concentration not listed). hit rate 1.6% among 350,000;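 active = significant combined selectivity score with lowered wild-type GFP, culture density cut under 30%, mutant RFP and density less affected; inactive = any of these conditions unmet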; also: one replicate is shown; some compounds called inactive have numbers as strong as hits
# A1 inh – inhibitors of the anti-apoptotic protein A1, read as caspase activation; MEF A1-2A-BIM cells, Caspase-Glo 3/7 luminescence, 3 h; percent of clofoctol response, vehicle zero; caspase activation, % (no concentration beside the values); hit rate 0.066% among 330,000;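 active = over half of replicate activation scores above 10%, or exactly half above 10 with the replicate mean above 10; inconclusive = replicate mean below 10 yet half the replicates above 10; inactive = over half of replicates below 10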;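 also: wells of about 30 µL received 50 nL stock; many hits fall short of the cut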
# T cruzi inh – T. cruzi replication inhibition; T. cruzi beta-gal in NIH3T3, luminescence, 90 h; inhibition, % (test concentration not listed); hit rate 1.4% among 300,000; AID 1885;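 active = mean inhibition across valid replicates above about 55%, limit read from the data; inconclusive = mean below that limit but half or more replicates reach it; inactive = mean below it, under half of replicates reach it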;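 also: signal also drops with host cell toxicity which is not excluded here; 0% = plate median of DMSO wells and 100% = zero luminescence signal; higher percent means less beta-gal luminescence so fewer parasites; stock transfer was 50 nL into about 50 µL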
# LANA-H2B inh – blocks KSHV LANA binding to histone H2A/H2B | Q9QR71 | cell-free LANA-H2A/H2B peptide, fluorescence polarization | inhibition, % (no concentration beside the values) | hit rate 0.6% among 320,000 | AID 2629; in the data active = inhibition mostly above about 10%, no sharp cut-off; inactive = mostly below about 6.7%;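 also: stock transfer was 7.5 nL into about 10 µL; 0% = median of vehicle wells and 100% = median of positive control wells; one replicate is shown; the record names a cut of 25% in any replicate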
# rRNA inh HTS OD600 – second read-out of rRNA inh HTS, no call of its own (marks repeat the call); OD600 change, %; measured here: OD600 growth;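 optical density of the mix in the first replicate; 0 = DMSO median and -100 = no signal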
# rRNA inh HTS RFP – further read-out of rRNA inh HTS, marked with its call; RFP signal change, %; measured here: RFP humanized mutant strains;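 first replicate; 0 = DMSO median and -100 = no signal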
# Starred values were filed as active, the others as inactive; u = inconclusive; x = not tested or not shown.
entry | canonical_smiles | Beta apoptosis | Beta2AR agonist | Calb FLC | ALR H2O2 inh | rRNA inh HTS | rRNA inh HTS OD600 | rRNA inh HTS RFP | A1 inh | T cruzi inh | LANA-H2B inh
1 | O=C(O)c1cc(-c2ccc3c(c2)OCO3)nc2ccccc12 | 3 | -3 | 26 | 9 | x | x | x | -1.3 | 2 | 3.1
2 | Cc1cc(OCCCC(=O)NC2=NCCS2)ccc1Cl | -22 | -1 | 9 | -14 | x | x | x | -0.1 | -7 | 1.6
3 | Cc1c(CCC(=O)O)c(=O)oc2cc3oc4c(c3cc12)CCCC4 | -10 | 4 | 3 | x | -20 | -22 | -6.6 | -0.3 | 8 | -3.8
4 | Cc1c(C(=O)Nc2cccc3cccnc23)oc2ccccc12 | -5 | 6 | -3 | -3 | x | x | x | 0.4 | 17 | 1.2
5 | CCc1cc2c(=O)n(CC)c(SC(C)C(=O)Nc3c(C)n(C)n(-c4ccccc4)c3=O)nc2s1 (stereo unspecified) | -7 | -24 | 45 | -4 | x | x | x | 0.1 | 7 | 5.0
6 | CCCN1C(=O)c2ccc(C(=O)Nc3cc(C)ccc3O)cc2C1=O | -1 | 5 | -8 | -2 | 7 | 15 | -1.4 | -5.8 | -10 | 14
7 | COc1cccc2c(=O)n(CC(=O)Nc3ccccc3)ccc12 | -5 | -11 | 1 | -9 | 12 | 12 | -0.1 | 0.7 | 3 | 0.3
8 | CCN(CC(=O)Nc1cc(Cl)ccc1C)C(=O)CN1C(=O)NC2(CCCC2)C1=O | 2 | -1 | -1 | x | 10 | -4 | 1.9 | 0.9 | 3 | 0.1
9 | Cc1ccc(S(=O)(=O)NCC(=O)OC(C)C(=O)c2ccccc2)cc1 (stereo unspecified) | -2 | 6 | -5 | -3 | 3 | 1 | -1.7 | -0.6 | -9 | 4.4
10 | CCN(C(=O)COC(=O)c1ccc2c(c1)OCO2)c1ccccc1 | -1 | -5 | x | 0 | -3 | -11 | 4.5 | 0.1 | x | 6.2

# By substructure: the entries above containing a Cl atom
entry | canonical_smiles | Beta apoptosis | Beta2AR agonist | Calb FLC | ALR H2O2 inh | rRNA inh HTS | rRNA inh HTS OD600 | rRNA inh HTS RFP | A1 inh | T cruzi inh | LANA-H2B inh
2 | Cc1cc(OCCCC(=O)NC2=NCCS2)ccc1Cl | -22 | -1 | 9 | -14 | x | x | x | -0.1 | -7 | 1.6
8 | CCN(CC(=O)Nc1cc(Cl)ccc1C)C(=O)CN1C(=O)NC2(CCCC2)C1=O | 2 | -1 | -1 | x | 10 | -4 | 1.9 | 0.9 | 3 | 0.1

# Some of these compounds in order of the Beta2AR agonist value, falling.
entry | Structure | Beta2AR agonist
6 | CCCN1C(=O)c2ccc(C(=O)Nc3cc(C)ccc3O)cc2C1=O | 5
8 | CCN(CC(=O)Nc1cc(Cl)ccc1C)C(=O)CN1C(=O)NC2(CCCC2)C1=O | -1
7 | COc1cccc2c(=O)n(CC(=O)Nc3ccccc3)ccc12 | -11

# The listing picks up, starting 3 compounds before the break.
entry | canonical_smiles | Beta apoptosis | Beta2AR agonist | Calb FLC | ALR H2O2 inh | rRNA inh HTS | rRNA inh HTS OD600 | rRNA inh HTS RFP | A1 inh | T cruzi inh | LANA-H2B inh
8 | CCN(CC(=O)Nc1cc(Cl)ccc1C)C(=O)CN1C(=O)NC2(CCCC2)C1=O | 2 | -1 | -1 | x | 10 | -4 | 1.9 | 0.9 | 3 | 0.1
9 | Cc1ccc(S(=O)(=O)NCC(=O)OC(C)C(=O)c2ccccc2)cc1 (stereo unspecified) | -2 | 6 | -5 | -3 | 3 | 1 | -1.7 | -0.6 | -9 | 4.4
10 | CCN(C(=O)COC(=O)c1ccc2c(c1)OCO2)c1ccccc1 | -1 | -5 | x | 0 | -3 | -11 | 4.5 | 0.1 | x | 6.2
11 | Cc1c(NC(=O)COC(=O)C2(c3ccc(F)cc3)CCCC2)c(=O)n(-c2ccccc2)n1C | -8 | -8 | -5 | 16 | 5 | 12 | -4.4 | 0.5 | -5 | -0.6
12 | O=c1[nH]ncn1-c1cccc(C(F)(F)F)c1 | 4 | -8 | -2 | x | x | x | x | 0.5 | 1 | 2.0
13 | COC(=O)Cc1c(C)c2ccc(OCC(=O)N(C)C3CCS(=O)(=O)C3)cc2oc1=O (stereo unspecified) | 0 | -12 | 5 | 2 | 5 | 13 | -0.4 | 0.1 | -16 | -2.0
14 | COC(=O)CSc1nsc(SCC(=O)OC)c1C#N | -2 | 13 | 16 | -28 | x | x | x | -0.8 | -11 | -2.9
15 | COc1cc([N+](=O)[O-])ccc1NC(=O)CCCOc1cccc(C)c1C | -6 | 3 | -1 | -4 | x | x | x | 0.6 | -15 | -4.9
16 | O=C(Nc1ccc(Cc2ccncc2)cc1)c1ccc(N2CCOCC2)c([N+](=O)[O-])c1 | -2 | -14 | -1 | -7 | -36 | -39 | -15 | 1.2 | 42 | 5.9
17 | COc1cc(/C=N/Nc2cc(C)nc(NS(=O)(=O)c3ccccc3)n2)ccc1O | 4 | 12 | -2 | 72 | -11 | -11 | 4.2 | 0.0 | 3 | -2.2
18 | O=S(=O)(NCc1ccccn1)C(F)(F)F | -3 | 1 | -6 | 7 | 10 | 11 | 2.5 | -0.2 | -16 | 0.5
19 | CCCCOc1ccc(C(=O)N/C(=C/c2cccc([N+](=O)[O-])c2)C(=O)O)cc1 | -5 | -12 | -6 | 6 | 11 | 8 | -1.6 | -0.1 | -10 | -2.7
20 | COc1ccc(S(=O)(=O)n2nc(OC(=O)C3CCCCC3)cc2N)cc1 | -7 | 1 | -7 | 0 | x | x | x | 0.4 | 4 | 4.7
21 | Cc1cc(Cl)ccc1OCC(=O)Nc1ccncc1 | 0 | 2 | 7 | 2 | -2 | 3 | 0.1 | 0.8 | -6 | -11
22 | CCCCn1c(Oc2ccc(C(=O)OC)cc2)nc2c1c(=O)n(C)c(=O)n2C | 0 | 11 | -2 | -3 | x | x | x | 0.4 | -8 | 1.6
23 | Cc1cc(C)n2nc(CNS(=O)(=O)c3ccc(CC(C)C)cc3)nc2n1 | 3 | -19 | -1 | -2 | -4 | 6 | 0.8 | -0.2 | -6 | 0.4
24 | CC1CN(CC(=O)NN=C(c2ccccc2)c2ccccc2)CC(C)O1 (stereo unspecified) | 4 | -2 | -5 | 1 | -6 | -6 | -1.8 | -0.1 | -1 | -3.9
25 | Cn1c(N)c(Sc2ccc(F)cc2)c(=O)n(C)c1=O | -2 | 2 | u | -18 | 10 | -3 | -2.4 | 0.6 | -16 | -6.9
26 | COc1ccc(S(=O)(=O)/N=C2\C=C(NS(=O)(=O)c3ccccc3)C(=O)c3ccccc32)cc1 | 1 | 0 | 27 | 87* | -2 | -20 | -0.3 | 0.2 | -3 | -0.7
27 | Cc1sc(=NC(=O)c2ccco2)n(C)c1-c1ccc(Cl)cc1 | 1 | -2 | 6 | 52 | x | x | x | 0.1 | 26 | -0.8
28 | Cc1nn(-c2ccccc2)c(Cl)c1C(=O)NC1CCCCC1 | -2 | -2 | 7 | -1 | 7 | -8 | -0.8 | -0.5 | -11 | -7.8
29 | Cc1ccc(C)c(OCCOCCN2CC(C)OC(C)C2)c1C (stereo unspecified) | -1 | 10 | -15 | x | x | x | x | 0.4 | 49 | 5.1

# Structures listed so far that contain a nitro group on carbon (3):
entry | canonical_smiles | Beta apoptosis | Beta2AR agonist | Calb FLC | ALR H2O2 inh | rRNA inh HTS | rRNA inh HTS OD600 | rRNA inh HTS RFP | A1 inh | T cruzi inh | LANA-H2B inh
15 | COc1cc([N+](=O)[O-])ccc1NC(=O)CCCOc1cccc(C)c1C | -6 | 3 | -1 | -4 | x | x | x | 0.6 | -15 | -4.9
16 | O=C(Nc1ccc(Cc2ccncc2)cc1)c1ccc(N2CCOCC2)c([N+](=O)[O-])c1 | -2 | -14 | -1 | -7 | -36 | -39 | -15 | 1.2 | 42 | 5.9
19 | CCCCOc1ccc(C(=O)N/C(=C/c2cccc([N+](=O)[O-])c2)C(=O)O)cc1 | -5 | -12 | -6 | 6 | 11 | 8 | -1.6 | -0.1 | -10 | -2.7

# Not all compounds are listed. The share of hits here may be higher or lower than overall.
